Calb FLC – affects C. albicans growth with fluconazole; C. albicans CaCi-2 (fluconazole-resistant clinical isolate) + fluconazole, Alamar Blue growth, 48 h; growth inhibition, % (no concentration beside the values); 0.57% of 300,000 active; AID 1979;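 active means most replicates above 75%; inconclusive means exactly half above 75%; inactive means most below 75%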;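 further: all wells also contain fluconazole at 8 µg/ml as a sub-toxic cotreatment; 0% = median of DMSO wells and 100% = median of geldanamycin control wells; wells of about 8 µL received 7.5 nL stock; the first replicate is given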
RanGTP-Impb inh – disruptors of Ran-importin-beta complex formation – biochemical, FRET, CFP-Ran, YFP-importin-beta, homogeneous, primary screen; cell-free CFP-Ran/YFP-importin-beta FRET ratio; inhibition, % (no concentration beside the values); 1.1% of 300,000 active; AID 2216;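 active means most replicates above 15%; inconclusive means exactly half above 15%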;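 further: 0% = DMSO wells and 100% = Ran loaded with GDP instead of GTP; wells of about 40 µL received 100 nL stock; the first replicate is given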
HNF4A DNA FP – change in binding of human HNF4 alpha to DNA. 0.3% of 360,000 active. P41235. AID 1224865. activity change, % at 10 µM. HNF4a-FITC DNA binding, fluorescence polarization, 1 h; in the data active means activity change above about 30%, passing the limit was not always enough;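 further: controls were the assay level and a saturating level of protein; the project sought stronger binding though the title names inhibitors; some compounds called inactive have numbers as strong as hits; positive values seem to mean higher polarization but the record does not say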
Beta2AR agonist – agonists of human beta-2 adrenergic receptor inducing internalization; P07550; Am2.2-beta2AR cells, FAP receptor internalization, flow cytometry; reference of the scale not given here; response, % (concentration not given with the values); 0.43% of 340,000 active; AID 504454;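 active means response above a set limit, near 3 SD of response in nonfluorescent compounds, cut at about 42% in these data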;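 further: stock transfer was 100 nL into about 11 µL; a reference agonist was the positive control; negative values mostly stem from fluorescent compounds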
ALR H2O2 inh – blocks human ALR sulfhydryl oxidase activity | P55789 | purified ALR, DTT oxidation, H2O2 HRP-luminol luminescence | inhibition, % (test concentration not listed) | 3.8% of 290,000 active;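 active means mean and each replicate at 75% or more; inconclusive means only one of the two met; inactive means neither met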;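 further: stock transfer was 7.5 nL into about 7.5 µL; 0% = neutral wells and 100% = wells with inactivated enzyme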
Vif A3G – HIV-1 Vif–A3G interaction blockers – biochemical, TR-FRET, GST-Vif 1-94, biotin-A3G peptide, dose response retest, primary screen (AID 1117319) | TR-FRET GST-Vif / biotin-A3G peptide binding; higher % means a stronger effect; test concentration not given here; strong numbers were not always called active | 0.57% of 260,000 active | one-dose inhibition, %; IC50 in µM for titrated hits;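 active means above the screen mean plus three standard deviations and confirmed in dose response; inconclusive means results disagree or hit not tested in dose response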;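 further: Vif residues 1-94 fused to GST binding biotinylated APOBEC3G peptide 110-148; 0% = full assay without inhibitor and 100% = GST in place of GST-Vif; retest series ran down from 100 µM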
LANA-H2B inh – blocks KSHV LANA binding to histone H2A/H2B; cell-free LANA-H2A/H2B peptide, fluorescence polarization; inhibition, % (no concentration beside the values); 0.6% of 320,000 active; in the data active means inhibition mostly above about 10%, no sharp cut-off; inactive means mostly below about 6.7%;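 further: stock transfer was 7.5 nL into about 10 µL; 0% = median of vehicle wells and 100% = median of positive control wells; one replicate is shown; the record names a cut of 25% in any replicate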
Target sequence (Q9QR71 whole entry, looked up): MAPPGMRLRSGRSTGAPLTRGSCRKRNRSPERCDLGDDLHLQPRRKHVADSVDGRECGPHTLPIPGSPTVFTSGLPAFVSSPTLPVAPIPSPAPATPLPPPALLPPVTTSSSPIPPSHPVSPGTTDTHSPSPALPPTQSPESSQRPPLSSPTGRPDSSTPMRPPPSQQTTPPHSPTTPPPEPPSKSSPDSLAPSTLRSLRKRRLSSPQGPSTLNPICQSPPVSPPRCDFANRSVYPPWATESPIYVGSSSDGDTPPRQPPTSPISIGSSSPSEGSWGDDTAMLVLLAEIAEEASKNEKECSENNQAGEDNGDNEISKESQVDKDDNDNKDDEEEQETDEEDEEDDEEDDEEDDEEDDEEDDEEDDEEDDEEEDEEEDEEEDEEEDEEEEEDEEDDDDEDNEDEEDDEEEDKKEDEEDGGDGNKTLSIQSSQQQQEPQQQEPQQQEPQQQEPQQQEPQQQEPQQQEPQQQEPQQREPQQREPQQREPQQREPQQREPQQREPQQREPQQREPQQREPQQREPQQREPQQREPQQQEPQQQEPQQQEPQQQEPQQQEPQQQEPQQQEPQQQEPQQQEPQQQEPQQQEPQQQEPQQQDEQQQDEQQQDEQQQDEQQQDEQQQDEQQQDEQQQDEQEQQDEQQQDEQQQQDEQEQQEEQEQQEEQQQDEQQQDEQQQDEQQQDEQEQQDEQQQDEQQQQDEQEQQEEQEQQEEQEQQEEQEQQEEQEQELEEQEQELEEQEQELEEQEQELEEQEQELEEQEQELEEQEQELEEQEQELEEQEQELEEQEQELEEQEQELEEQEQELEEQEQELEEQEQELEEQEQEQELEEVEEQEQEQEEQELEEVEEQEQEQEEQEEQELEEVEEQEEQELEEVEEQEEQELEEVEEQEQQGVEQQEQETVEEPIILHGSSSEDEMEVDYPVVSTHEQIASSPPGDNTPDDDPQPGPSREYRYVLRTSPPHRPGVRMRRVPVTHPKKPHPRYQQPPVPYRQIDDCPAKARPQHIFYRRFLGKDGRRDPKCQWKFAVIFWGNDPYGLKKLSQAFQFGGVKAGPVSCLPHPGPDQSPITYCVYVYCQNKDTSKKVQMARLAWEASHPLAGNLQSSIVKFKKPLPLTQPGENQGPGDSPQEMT
Starred values were filed as active, the others as inactive; u = inconclusive; x = no result given. An unsorted share of the library (roughly 6.3% active in at least one column).

SMILES	Calb FLC	RanGTP-Impb inh	HNF4A DNA FP	Beta2AR agonist	ALR H2O2 inh	Vif A3G	LANA-H2B inh
CO/N=C(/CS(=O)c1ccc(Br)cc1)c1ccc(OC)cc1 (stereo not given)	6	x	-1.9	4	-5	-2%	3.4
COc1cccc(C(=O)NCC(=O)OCc2ccc(F)cc2Cl)c1	7	4.1	7.9	6	-4	-4%	2.3
CCCNC(=O)N(C)c1nncnc1C(=O)NC	12	3.5	-1.6	-10	-3	u	-1.2
Cc1ccc(C(=O)O)cc1NC(=O)CSc1nnc(-c2ccccc2F)n1C1CCCCC1	x	x	-2.4	3	-4	x	2.5
C=CC#CC1(O)CC(C)N(C)CC1C (stereo not given)	-10	0.5	3.7	3	-3	x	3.4
Cc1onc(-c2c(Cl)cccc2Cl)c1COC(=O)c1ccc([N+](=O)[O-])cc1	-2	2.7	3.2	-1	-7	-12%	0.7
COC(=O)c1ccccc1NC(=O)CS(=O)(=O)Cc1nc(-c2ccc(C)cc2)oc1C	-4	5.3	0.3	3	-11	11%	-0.2
Cc1ccc(-c2csc(NC(=O)CN3CC(C)OC(C)C3)n2)cc1 (stereo not given)	-3	0.4	2.3	-7	98*	x	2.1
CCOC(=O)c1c(NC(=O)COc2cccc3c2CCN(CC)C3=O)sc2c1CCC2	-4	-2.8	-2.2	-7	2	6%	-0.3
COc1cc(S(=O)(=O)N2CCC(C(N)=O)CC2)c(C)cc1C	-1	1.2	4.4	-3	-5	5%	-4.3
CCOC(=O)c1ccc(NC(=S)N(CCCN2CCN(CC)CC2)Cc2cccs2)cc1	-37	-4.3	-0.3	1	-6	x	-0.4
O=[N+]([O-])c1cc([N+](=O)[O-])c2c(=Nc3ccccc3)n(-c3ccccc3)n(O)c2c1	18	-0.1	-2.8	-3	-51	u	-0.3
Cc1ccc(S(=O)(=O)NCCC(=O)Nc2ccncc2)cc1C	2	1.2	-2.2	-4	10	-4%	0.9
CCOC(=O)CC(NC(=O)C(CC)c1ccccc1)c1ccccc1Cl (stereo not given)	-2	3.2	2.1	-11	x	x	x
O=C(/C=C/c1cccs1)N1CCCC1	4	2.6	2.5	5	5	x	1.9

Structures above with fluorine:
SMILES	Calb FLC	RanGTP-Impb inh	HNF4A DNA FP	Beta2AR agonist	ALR H2O2 inh	Vif A3G	LANA-H2B inh
COc1cccc(C(=O)NCC(=O)OCc2ccc(F)cc2Cl)c1	7	4.1	7.9	6	-4	-4%	2.3
Cc1ccc(C(=O)O)cc1NC(=O)CSc1nnc(-c2ccccc2F)n1C1CCCCC1	x	x	-2.4	3	-4	x	2.5

Other compounds:
SMILES	Calb FLC	RanGTP-Impb inh	HNF4A DNA FP	Beta2AR agonist	ALR H2O2 inh	Vif A3G	LANA-H2B inh
CC(C)c1ccc(N2C(=O)CC(Sc3ncccn3)C2=O)cc1 (stereo not given)	-4	-2.3	-1.6	4	-3	x	1.1
CC(=O)Nc1ccc(S(=O)(=O)N(C#N)c2nc(N(C)C)nc(N(C)C)n2)cc1	2	2.1	-1.7	-5	-5	x	-0.4
COc1ccc(NC2(c3ccccc3)OC(=O)c3ccccc32)cc1 (stereo not given)	7	3.8	-4.4	3	-3	-6%	8.3
CC(=O)c1ccc(-c2nc3c4ccccc4ccn3c2C(C)=O)o1	1	1.2	8.4	-14	-8	u	-5.0
O=C(NCc1ccccc1)c1ccc(S(=O)(=O)NCc2ccco2)cc1	10	4.2	-4.0	-3	36	x	2.7
CCNS(=O)(=O)c1ccc(CCC(=O)N2CCCC2)cc1	-8	2.9	-4.5	-8	-5	x	-2.9
Cc1c(C(=O)N(C)Cc2ccc(OC(F)F)cc2)oc2ccccc12	9	0.5	0.0	4	x	x	7.9
O=C(COc1ccccc1Cl)NCCNC(=O)c1ccncc1	-3	-0.3	-1.8	-5	0	x	3.9
CC(C)(C)NS(=O)(=O)c1ccc(CCC(=O)Nc2ccc3c(c2)OCO3)cc1	0	2.5	-1.7	6	-10	15%	0.8
Cc1cccc(C)c1NC(=O)NC1CC2CCC(C1)N2Cc1cccs1 (stereo not given)	4	-13	-0.5	6	-7	-1%	2.8
O=C(NC1CC1)c1ccc(CN(c2ccccc2)S(=O)(=O)c2ccccc2)cc1	-7	0.6	1.8	-7	-17	7%	-9.6
O=C(c1ccc(OC2CCN(Cc3ccccn3)CC2)cc1)N1CCC[C@H]1CO	0	0.5	-1.3	5	-19	14%	-5.1
CCn1c(O)c(N=NC(=O)CNC(=O)/C=C/c2ccccc2)c2ccccc21	49	0.1	2.9	-11	-5	x	-4.2
COc1ccc(CN2CCCN(C)CC2)c(OC)c1C	-2	2.3	-3.0	-5	3	-2%	2.7
COc1ccc(CN2c3cc(S(=O)(=O)N4CCOCC4)ccc3N3CCCC32)cc1 (stereo not given)	u	u	1.2	1	-12	2%	7.1

Full records from above:
CCNS(=O)(=O)c1ccc(CCC(=O)N2CCCC2)cc1 across the screens: Calb FLC = -8; RanGTP-Impb inh = 2.9; HNF4A DNA FP = -4.5; Beta2AR agonist = -8; ALR H2O2 inh = -5; Vif A3G = x; LANA-H2B inh = -2.9
COc1ccc(NC2(c3ccccc3)OC(=O)c3ccccc32)cc1 (stereo not given) across the screens: Calb FLC = 7; RanGTP-Impb inh = 3.8; HNF4A DNA FP = -4.4; Beta2AR agonist = 3; ALR H2O2 inh = -3; Vif A3G = -6%; LANA-H2B inh = 8.3

(list continues)
SMILES	Calb FLC	RanGTP-Impb inh	HNF4A DNA FP	Beta2AR agonist	ALR H2O2 inh	Vif A3G	LANA-H2B inh
CC(=O)N1CCN(Cc2nc3ccc(Cl)cc3n2CCO)CC1	-6	28	1.0	3	-3	x	-1.4
O=C(COC(=O)c1ccc(Br)o1)Nc1ccc(F)cc1[N+](=O)[O-]	x	x	-4.5	0	-8	x	-2.7
O=C(Cn1ncc2c(=O)oc3ccccc3c21)NCC1CCCO1 (stereo not given)	9	-0.2	-3.2	-1	-1	2%	-0.5
C=CCn1c(NCc2ccc3c(c2)OCO3)nc2ccccc21	-1	x	4.3	3	54	-1%	2.5
O=C1C(Nc2ccc(O)cc2)=C/C(=N/S(=O)(=O)c2cccs2)c2ccccc21	28	3.5	-0.6	61*	x	-7%	x
Cc1cccc(N2CCN(c3nc4nonc4nc3N3CCSCC3)CC2)n1	u	0.5	-3.8	-2	-8	6%	1.6
Cc1ccc(NC(=O)Nc2ccccc2F)cc1S(=O)(=O)N1CCOCC1	x	x	-2.9	0	x	7%	-5.8

Shown with each value named: entries from further up.
> CC(=O)N1CCN(Cc2nc3ccc(Cl)cc3n2CCO)CC1
  Calb FLC: -6
  RanGTP-Impb inh: 28
  HNF4A DNA FP: 1.0
  Beta2AR agonist: 3
  ALR H2O2 inh: -3
  Vif A3G: x
  LANA-H2B inh: -1.4

> O=C(COC(=O)c1ccc(Br)o1)Nc1ccc(F)cc1[N+](=O)[O-]
  Calb FLC: x
  RanGTP-Impb inh: x
  HNF4A DNA FP: -4.5
  Beta2AR agonist: 0
  ALR H2O2 inh: -8
  Vif A3G: x
  LANA-H2B inh: -2.7

> O=C(Cn1ncc2c(=O)oc3ccccc3c21)NCC1CCCO1 (stereo not given)
  Calb FLC: 9
  RanGTP-Impb inh: -0.2
  HNF4A DNA FP: -3.2
  Beta2AR agonist: -1
  ALR H2O2 inh: -1
  Vif A3G: 2%
  LANA-H2B inh: -0.5

> C=CCn1c(NCc2ccc3c(c2)OCO3)nc2ccccc21
  Calb FLC: -1
  RanGTP-Impb inh: x
  HNF4A DNA FP: 4.3
  Beta2AR agonist: 3
  ALR H2O2 inh: 54
  Vif A3G: -1%
  LANA-H2B inh: 2.5
